Sfp PPTase inh: qHTS Assay for Inhibitors of Bacillus subtilis Sfp phosphopantetheinyl transferase (PPTase) | 3.5% of 310,000 active | Potency, µM, without a hit: max response, negative = inhibition, hits mostly inhibitors | Biochemical Sfp PPTase activity, qHTS | 4'-phosphopantetheinyl transferase ffp (Bacillus subtilis), Q9F4F7; active = well fitted inhibition curve with a large enough effect; inconclusive = small, poorly fitted or top-dose-only effect, or another doubt; inactive = no such curve, though single readings can be large or run the other way;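 note: the enzyme is Sfp with the accession as filed and its product quenches rhodamine fluorescence; potency is the fitted concentration of half-maximal effect; 0% = enzyme reaction without inhibitor and -100% = no enzyme wells; top concentration of the series not given in the record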
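Step 1, compound plus 15 nM Sfp-PPTase, 15 min, room temperature. Step 2, add rhodamine-CoA (5 uM) and BHQ-2-YbbR (12.5 uM). Step 3, read 525/598 nm fluorescence at 0 and 30 min.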
ClpP mod: qHTS Assay for Activators of ClpP | ATP-dependent Clp protease proteolytic subunit (Bacillus subtilis (strain 168)), P80244 | purified B. subtilis ClpP, FRET peptide cleavage, 20 min | Potency, µM (top dose mostly 57.5 µM), for the others: top-dose activity change, negative = active | 1.9% of 340,000 active; active = well fitted falling curve with a large enough effect; inconclusive = small, poorly fitted or top-dose-only effect; inactive = no such curve, though single readings can be large or run the other way; note: potency is the fitted concentration of half-maximal effect; the source files actives as falling curves though it sought activators and does not explain the sign; nearly all actives have a fitted effect of over 65% in size; many hits overshoot -100%
Target sequence (P80244 whole entry, looked up): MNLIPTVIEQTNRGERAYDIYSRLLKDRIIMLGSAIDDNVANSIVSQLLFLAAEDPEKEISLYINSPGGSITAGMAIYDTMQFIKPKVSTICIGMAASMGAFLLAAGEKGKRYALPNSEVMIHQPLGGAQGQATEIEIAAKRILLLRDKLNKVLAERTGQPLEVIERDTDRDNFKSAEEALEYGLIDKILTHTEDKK
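ClpP 10 microg/mL final, pH 8 Tris/KCl buffer with BSA, glycerol, Tween-20; compound pinned in; FRET-FV substrate; RT 20 min; Ex320/Em430; ΔFRET vs ADEP 5.8 microM, DMSO, no enzyme.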
Menin MLL FP FL: qHTS Assay for Inhibitors Targeting the Menin-MLL Interaction in MLL Related Leukemias: Competition With Fluorescein Labeled MLL-derived Peptide | Fluorescence polarization, fluorescein-MLL peptide displacement from menin | FP activity change, % at 61.4 µM | 290,000 tested, under 10 active; inconclusive = falling polarisation curve, or a change in total fluorescence; inactive = total fluorescence flat and polarisation flat or rising; no compound was filed as active; the % refers to the polarisation; negative = inhibition;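 note: % of control where 0% means no effect; inhibitors lower the polarisation; unlabelled MLL peptide was the positive control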
gsp agonist: qHTS for Agonist of gsp, the Etiologic Mutation Responsible for Fibrous Dysplasia/McCune-Albright Syndrome: qHTS | gsp mutant cells, cAMP HTRF, 30 min; control for the full effect not named in the record | Potency, µM (top dose mostly 76.9 µM), for inactives: top-dose activation (cAMP increase), most hits filed as activators | 0.13% of 340,000 active | AID 624287, 2012; active = well fitted activation curve with a large enough effect; inconclusive = small, poorly fitted or top-dose-only effect, or another doubt; inactive = no such curve, though single readings can be large or run the other way; cell line not stated here;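 note: phosphodiesterase inhibitor Ro 20-1724 added with compounds to block cAMP breakdown; potency is the fitted concentration of half-maximal effect; nearly all actives have a fitted effect of over 60% in size; about a fifth of the inactives were tested at one dose only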
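Cells stably selected in G418 were plated at 2000/well, grown 16-24 hr, then given compounds in DMSO with the PDE inhibitor […] (300 uM solution added) for 30 min at 37C; cAMP was read by HTRF.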
gsp antagonist: qHTS for Antagonists of gsp, the Etiologic Mutation Responsible for Fibrous Dysplasia/McCune-Albright Syndrome: qHTS; gsp-mutant cells, cAMP HTRF, 30 min; control for the full effect not named in the record; Potency, µM (highest dose often 76.9 µM), without a hit: at the highest dose activity change, negative = inhibition, most hits filed as inhibitors; 0.4% of 340,000 active; active = falling curve of any shape with a large fitted effect; inconclusive = falling curve, mostly with a smaller effect; inactive = flat or rising curve; cell line not stated here;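 note: intracellular cAMP measured with PDE inhibitor Ro 20-1724 present during compound exposure; potency is the fitted concentration of half-maximal effect; % is set by controls: 0 for no effect and ±100 for the full control effect; nearly all actives have a fitted effect of over 65% in size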
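HTRF cAMP read-out (cAMP-d2 plus anti-cAMP antibody-K in lysis buffer, 30 min RT). Before lysis, cells are exposed to compounds with […] for 30 min at 37C in DPBS containing Ca/Mg, BSA and Tween 20.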
TRPV1 potentiator: HTS Assay for Compounds that Act as Potentiators of the Vanilloid Receptor 1; Transient receptor potential cation channel subfamily V member 1 (Homo sapiens), Q8NER1; TRPV1-expressing cells, Fluo-8 calcium influx, capsaicin EC20 potentiation; host cell line not named in the record; control for the full effect not named in the record; potentiation, % at 8.33 µM; 0.02% of 320,000 active; active means potentiation above 80%; inconclusive means 30% to 80%; inactive means below 30%; note: 0% is about no effect
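Fluo-8 calcium influx in TRPV1-expressing cells, kinetic read (ex 480/em 520 nm). Compound added and read 3 min for agonist activity, followed by capsaicin at EC20 final and 2 min further read for enhancement.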
TRPML1 blocker: qHTS for Inhibitors of the Human Mucolipin Transient Receptor Potential 1 (TRPML1); Mucolipin-1 (Homo sapiens), Q9GZU1; TRPML1-inducible cells, Ca2+ dye fluorescence, FDSS; active compounds read low; inhibition of EC80 agonist-evoked calcium signal; activity change, negative = inhibition, % (no concentration beside the values); 0.02% of 390,000 active; in the data active means activity change below about -50%; inconclusive means about -30% to -50%; inactive means above about -30%;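 note: stimulus is agonist 54-4 at its EC80 concentration; % is set by controls: 0 for no effect and ±100 for the full control effect; compound concentration not given in the record; the text of the record puts the active cut at -80%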
Target sequence (Q9GZU1 whole entry, looked up): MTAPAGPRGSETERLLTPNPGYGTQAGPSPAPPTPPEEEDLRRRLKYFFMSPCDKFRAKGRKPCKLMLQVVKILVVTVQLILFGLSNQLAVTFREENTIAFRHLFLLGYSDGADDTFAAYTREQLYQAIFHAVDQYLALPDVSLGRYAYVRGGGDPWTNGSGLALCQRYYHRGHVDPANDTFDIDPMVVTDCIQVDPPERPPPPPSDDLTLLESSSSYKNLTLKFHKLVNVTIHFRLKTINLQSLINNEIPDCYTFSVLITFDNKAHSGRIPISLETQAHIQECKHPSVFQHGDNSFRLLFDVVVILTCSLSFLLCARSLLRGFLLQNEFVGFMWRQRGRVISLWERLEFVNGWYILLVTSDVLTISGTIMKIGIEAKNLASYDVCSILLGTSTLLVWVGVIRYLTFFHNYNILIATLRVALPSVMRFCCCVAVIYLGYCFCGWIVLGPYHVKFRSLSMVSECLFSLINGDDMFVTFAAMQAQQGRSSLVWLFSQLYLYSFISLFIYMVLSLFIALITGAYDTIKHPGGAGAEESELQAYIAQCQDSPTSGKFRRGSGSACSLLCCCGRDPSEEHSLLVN
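TRPML1-DL cells, Tet-induced overnight (~16 h, 37 °C) at 1,500 cells/well, were loaded with Ca8 no-wash dye plus quencher for 45-90 min at room temperature. Compounds were pinned during FDSS kinetic reading; agonist 54-4 at EC80 (4 uM final) then added.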
* = called active by the depositor; ? = inconclusive; · = not tested or not shown; & = joins results of further samples; [ ] = another dose, or the depositor's remark.

The line under a structure holds: Sfp PPTase inh, ClpP mod, Menin MLL FP FL, gsp agonist, gsp antagonist, TRPV1 potentiator, TRPML1 blocker
- Fc1ccc(N=c2ssnc2Cl)c(F)c1
  14µM*, ·, -4.2, -57%[inhibitor], -19%, ?, -8
- C#CCNC(=O)C1=C[C@H](c2ccc3c(c2)OCO3)C[C@H](OCc2ccc(CO)cc2)O1
  -7%, 0.4%, 4.2, ·, -8%, 4, 12
- CC(C)c1ccccc1NC(=S)NCC1(N(C)C)CCCCC1
  10%, 1.0%, ·, 23%, 16%, -3, -14
- CCN(C(=O)c1cccc(Br)c1)C1CCS(=O)(=O)C1 (stereo not given)
  ·, ·, ·, -1%[15.4 µM], 5%, -13, -2
- Cc1ccc(/C=N/NC(=O)CSc2nc3ccccc3o2)cc1
  -17%, 1.3%, 5.3, -53%[inhibitor], ?, -2, -7
- COc1ccc(CNC(=O)CN(Cc2ccc(C)cc2)C(=O)c2csnn2)cc1
  -2%, ?, ·, 7%[15.4 µM], -10%, -10, 5
- CC1(C)NC(=O)N(CCCCOc2ccc(Cl)cc2C=O)C1=O
  4%, ?, -0.9, 14%, 10%, -21, 15
- CCCCCCCNC(=O)C1(CC2CC(c3cccc(Br)c3)=NO2)CCN(C(=O)OC(C)(C)C)CC1 (stereo not given)
  -11%, -0.9%, -1.0, -18%, -6%, 25, -4
- COc1cc(OC)cc(-c2cc3nc(C)c(CCC(=O)O)c(=O)n3[nH]2)c1
  8%, 4.5%, 1.9, -32%[inhibitor], 5%, 10, 32
- O=C(Nc1ccccc1N1CCOCC1)c1ccc(Cl)c(S(=O)(=O)NCc2ccco2)c1
  2%, -0.4%, -4.4, ?, -14%, 0, 10
- Cc1ccc(S(=O)(=O)NCc2csc(-c3cccs3)n2)cc1
  7%, 4.3%, 2.1, 0%, -4%, 2, 8
- Cc1ccc2cc(CN(CCN3CCOCC3)C(=O)NCc3ccccc3)c(=O)[nH]c2c1C
  2%, ?, -3.1, 2%, 11%, 4, 4
- CCOC(=O)C1Oc2ccccc2C(c2cccc3ccccc23)=C1C(=O)OC (stereo not given)
  5%, -5.3%, 10, ·, -14%, ·, -6
- Fc1ccc(NC(=S)N2CCCC(c3ccccc3)=N2)cc1
  0%, ·, -0.5, 8%[15.4 µM], ?, -2, 20
- CN(C)CCCOc1nc2c(c(=O)n(C)c(=O)n2C)n1C
  4%, -4.3%, 3.8, 0%, 10%, 3, -1
- COCCN(C(=O)COC(=O)c1cc2ccccc2cc1O)c1c(N)n(Cc2ccccc2)c(=O)[nH]c1=O
  ·, -2.0%, ·, -26%, 11%, 5, 14
- Cn1cccc1C(=O)N1CCc2ccccc2C1
  -11%, -1.1%, 2.5, 11%, 5%, 5, 0
- Cc1cccc(C(=O)OCC(=O)NCCN2C(=O)CSC2=O)c1[N+](=O)[O-]
  ·, -0.7%, ·, ?, 15%, ·, -6
- Nc1cc(=O)[nH]c(SCc2ccccc2Cl)n1
  -2%, -0.9%, 0.2, 4%, 5%, 11, -7
- C=CCn1c(Cc2csc(N)n2)nnc1SCc1ccc(C(=O)OC)cc1
  13%, 0.0%, -1.6, -32%[inhibitor], -2%, 3, -3
- Cc1c(NC(=O)c2coc(=O)c(Br)c2)c(=O)n(-c2ccccc2)n1C
  -16%, ?, ?, -5%, 8%, 0, 57
- Cn1c(=O)c2[nH]c(N=NN3CCCCC3)nc2n(C)c1=O
  ·, ·, ·, ?, 7%, ·, 7
- O=C(NN=Cc1ccc2c(c1)CCC2)c1cccc([N+](=O)[O-])c1
  ·, 1.8%, ·, 23%, ·, ·, 12
- C/C=C(/C)C(=O)Nc1cccc(C2=NOC3(C2)C[C@@H](C(N)=O)N(C(=O)/C=C/CC)C3)c1 (stereo not given in full)
  0%, 0.3%, -0.6, ·, 10%, -17, 8
- Cc1ccc(CS(=O)(=O)CCC(=O)NCCCOC(C)C)cc1
  10%, 0.9%, 1.4, 3%, 3%, 9, 5
- CCOC(=O)CSc1nc2sc3c(c2c(=O)n1-c1ccc(OC)cc1)CCN(C)C3
  -4%, -14%, 11, ?, -13%, 23, 1
- CC(C)c1ccc2oc(=O)cc(CN3CCCCC3)c2c1
  -1%, ·, -9.8, -39%[inhibitor][15.4 µM], -10%, 2, -7
- CCCC1(C)NC(=O)c2ccccc2O1 (stereo not given)
  17%, ·, 1.8, -12%[15.4 µM], 9%, 0, -21
- CCN(CC)CCCNc1nc(-c2ccccc2)nc2ccccc12
  -22%, -0.3%, 4.6, 5%, 9%, 9, 19
- O=C(O)c1cc(=O)c2c(OCC(O)COc3cccc4oc(C(=O)O)cc(=O)c34)cccc2o1
  12%&20%&14%&-4%&15%, -3.9%, 2.5, ·, 6%, 1, 23

Among those listed so far, 4 have an aryl thioether with sulfur outside any ring.
The line under a structure holds: Sfp PPTase inh, ClpP mod, Menin MLL FP FL, gsp agonist, gsp antagonist, TRPV1 potentiator, TRPML1 blocker
- Cc1ccc(/C=N/NC(=O)CSc2nc3ccccc3o2)cc1
  -17%, 1.3%, 5.3, -53%[inhibitor], ?, -2, -7
- Nc1cc(=O)[nH]c(SCc2ccccc2Cl)n1
  -2%, -0.9%, 0.2, 4%, 5%, 11, -7
- C=CCn1c(Cc2csc(N)n2)nnc1SCc1ccc(C(=O)OC)cc1
  13%, 0.0%, -1.6, -32%[inhibitor], -2%, 3, -3
- CCOC(=O)CSc1nc2sc3c(c2c(=O)n1-c1ccc(OC)cc1)CCN(C)C3
  -4%, -14%, 11, ?, -13%, 23, 1

The results go on:
The line under a structure holds: Sfp PPTase inh, ClpP mod, Menin MLL FP FL, gsp agonist, gsp antagonist, TRPV1 potentiator, TRPML1 blocker
- COc1ccc(NS(=O)(=O)c2cc(C)ccc2OC)cc1OC
  10%, -23%, 3.7, 1%, -4%, -4, 12
- O=C(O)C[C@H]1c2cc(C(F)(F)F)ccc2S(=O)(=O)N1C1CCCCC1
  ·, 0.0%&-3.1%, ·, ?, 8%, ·, 3
- CN(Cc1ccccc1)C(=O)CCC1CCN(C(=O)CCC(F)(F)F)CC1
  4%, 1.5%, -1.9, 0%[15.4 µM], 4%, ?, -20
- CCc1ccc(-c2nn(Cc3ccccc3)cc2C(=O)NCC2CCCO2)cc1 (stereo not given)
  ·, -0.7%, ·, -6%, -28%, -10, -2
- CCOCCCNC(=O)c1oc2ccc3c(c2c1C)C(O)CC(C)(C)O3 (stereo not given)
  18%, 3.4%, 1.6, -46%[inhibitor], 8%, 6, 7
- CCOC(=O)C1=C(C)OC(N)=C(C#N)C1c1cc(Cl)c(OCC(N)=O)c(OC)c1 (stereo not given)
  13%, -4.9%, ?, -43%[inhibitor], -7%, 8, 5
- O=C(/C=C/c1cccc([N+](=O)[O-])c1)NC(=S)Nc1cccc(NC(=O)c2ccccc2Cl)c1
  -23%, 0.2%, 1.9, -10%, -8%, 8, -9
- Cc1cc(Cl)ccc1OCC(=O)OCC(=O)NC1CCS(=O)(=O)C1 (stereo not given)
  ·, 1.8%, ·, -31%[inhibitor], 4%, -12, -12
- Cc1ccc(NC(=O)Cn2nc(C(=O)O)c3ccccc3c2=O)c([N+](=O)[O-])c1
  8%, ·, -1.7, -27%, 2%, 9, 5
- Cc1cccc(CCNC(=O)CCS(=O)(=O)c2ccc(Br)cc2)c1
  17%, -1.0%, 0.4, ?, -2%, 22, -14
- COC(=O)C1C(O)=CC(=O)CC1C (stereo not given)
  -12%, -3.0%, -1.3, 6%, 10%, 11, 7
- Nc1nnc(CC(=O)N/N=C/c2ccc(-c3ccc(F)cc3)o2)s1
  -15%, ·, 3.8, 16%, -4%, 26, -9
- CCOc1ccccc1NC(=O)c1cc(C(=O)c2cc(Br)ccc2O)coc1=N
  -19%, ·, 10.0, 2%[15.4 µM], -32%, -5, -20
- Cc1sc2ncnc(SCC(=O)NC3CC3)c2c1C
  8%, -6.1%, -1.6, -28%, 1%, -10, 4
- O=S1(=O)CC(N2CCCCC2)C(N2CCCCC2)C1 (stereo not given)
  7%, 0.1%, -0.4, 21%, 13%, -3, 6
- COc1cc(/C=C/C(=O)OCC(=O)N2CCCCCC2)ccc1OCC#N
  12%, ·, 1.1, -6%[15.4 µM], -11%, -4, -6
- COc1ccc(-c2csc3nc(C)n(-n4cccc4)c(=O)c23)cc1
  -18%, -7.3%, 0.6, ?, 0%, 5, -12
- O=C(NCCC(=O)N1CCOCCOCCOCCOCC1)OCc1ccccc1
  12%, 0.8%, 0.7, -14%, 2%, 8, -28
- O=C(c1cccc(NS(=O)(=O)c2ccc(Br)cc2)c1)N1CCN(c2ccccc2O)CC1
  ·, ?, ·, -6%, -27%, 11, -7
- c1ccc(Nc2nnc(-c3cccc4ccccc34)o2)cc1
  20%, ·, 0.4, 3%[15.4 µM], 7%, -36, 7
- Cc1ccn(C(=O)c2ccc(NC(=O)C3CC3)cc2)n1
  18%, -11%, 2.8, 2%, -5%, -2, -9
- COCCCn1c(SCC(=O)c2c(N)n(C3CC3)c(=O)[nH]c2=O)nnc1-c1ccccc1Cl
  ·, -0.8%, ·, -3%, ·, ·, -4
- CCOC(=O)[C@H]1[C@H]2COc3ccc(Cl)cc3[C@@H]2N2C(=O)c3cc(Cl)ccc3NC(=O)[C@@]12C
  ·, -13%, ·, 3%, -9%, 11, 0
- O=[N+]([O-])c1cc([N+](=O)[O-])c(Oc2c(F)ccc(F)c2F)cc1NN1CCCCC1
  16%, 0.5%, -1.6, 1%, -16%, 8, 18

Bioassay records from PubChem BioAssay.
